OX1R antag: OX1R (HCRTR1) antagonists, primary screen, fluorescence, CHO/OX1R cells, Fluo-8 calcium, orexin A. inhibition, % at 5 µM. Fluo-8 calcium fluorescence. hit rate 0.43% among 330,000. Orexin/Hypocretin receptor type 1 (Homo sapiens), O43613;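 active means inhibition above its plate's threshold, mean inhibition of all tested compounds on the plate plus 3 SD, cut at about 37% in these data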;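 further: 0% = orexin A challenge wells and 100% = SB-334867-A antagonist wells; not every result past the cut was called active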
Target sequence (O43613 whole entry, looked up): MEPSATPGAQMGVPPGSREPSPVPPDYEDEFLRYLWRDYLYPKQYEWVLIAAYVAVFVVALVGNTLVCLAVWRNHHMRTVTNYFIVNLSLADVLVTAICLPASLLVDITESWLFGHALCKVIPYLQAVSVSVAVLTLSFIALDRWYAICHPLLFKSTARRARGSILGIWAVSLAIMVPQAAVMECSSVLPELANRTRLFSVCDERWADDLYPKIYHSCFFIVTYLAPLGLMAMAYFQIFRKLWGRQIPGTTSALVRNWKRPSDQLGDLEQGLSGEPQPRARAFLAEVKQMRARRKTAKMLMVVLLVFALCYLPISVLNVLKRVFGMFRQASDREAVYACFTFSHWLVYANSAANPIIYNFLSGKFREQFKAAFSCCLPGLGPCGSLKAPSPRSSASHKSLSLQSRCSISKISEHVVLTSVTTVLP
* hit, by the source's call. Some of the compounds tested, and most or all hits are left out here.

SMILES	OX1R antag
Cc1c(C(=O)Oc2ccc(-c3cnc4ccccc4n3)cc2)cccc1[N+](=O)[O-]	-7
COC(=O)C(CC(=O)c1cccc(OC)c1)c1ccc(F)cc1 (configuration not stated)	-35
Cc1cn(COC/C=C/c2ccccc2)c(=O)[nH]c1=O	-13
Cc1onc(-c2ccccc2Cl)c1C(=O)NCc1nc(-c2ccccc2)no1	-22
CCOC(=O)c1sc(N)c(C#N)c1COC(=O)CNC(=O)c1cc(OC)c(OC)c(OC)c1	-22
Cc1cccc(N2C(=O)C(O)=C(C(=O)c3cccs3)C2c2cccc(Oc3ccccc3)c2)n1 (configuration not stated)	-31
CCOc1ccc(NC(=O)n2ncc3c(C)cccc32)cc1	0
NC(=O)C1CCN(CC(=O)Nc2ccccn2)CC1	-18
CCOc1ccc(NC(=O)CN(C)C(=O)c2ccccc2CCc2ccccc2)cc1OCC	-14
NC(=O)CN1C(=O)C(=O)N(Cc2ccccc2Cl)C1=O	-5
C/C(=N/NC(=O)c1ccc(Br)o1)c1ccncc1	-19
O=C(NC(=S)NC1CCS(=O)(=O)C1)c1cccc([N+](=O)[O-])c1 (configuration not stated)	-1
Cc1cc(C)cc(NC(=O)CCN2CCCC2)c1	5
O=c1c2cn[nH]c2nc(SCc2cc(=O)n3cc(Br)ccc3n2)n1-c1ccc(Br)cc1	-14
O=C(Nc1cccc(O)c1)C1CC(c2cccc(Br)c2)=NO1 (configuration not stated)	3
C#Cc1cccc(C(=O)NC2CCCN(C3Cc4ccccc4C3)C2)c1 (configuration not stated)	-22
CNC(=O)CC1C(=O)N(C)C(=S)N1NC(=O)c1ccc(Cl)cc1 (configuration not stated)	-19
COc1ccc(C(=O)NCCn2ccc3ccccc32)c(OC)c1	-20
O=C(Nc1nc(-c2ccc(F)cc2)cs1)c1cccc(N2C(=O)CCC2=O)c1	6
COc1ccccc1Nc1n[nH]c(=S)s1	-16
Cc1ccc(OCC(=O)NCCNC(=O)c2ccc(C)nc2)cc1	-7
O=C(NC(=S)N1CCN(C(c2ccccc2)c2ccccc2)CC1)c1ccc(S(=O)(=O)N2CCOCC2)cc1	-21
Cc1cc(NC(=O)NC(=O)c2ccc(F)cc2F)n[nH]1	-12
CCN(C1CCCCC1)S(=O)(=O)c1c(C)n(C)c(=O)n(C)c1=O	-7
CCN1CCN(C(c2cccs2)C(C)NC(=O)c2cccc(OC)c2)CC1 (configuration not stated)	-14
The list goes on.
SMILES	OX1R antag
CC1(C)CC(=O)C2=C(C1)N(Cc1ccco1)C(=O)C2(O)C(F)(F)F (configuration not stated)	-4
CCOc1ccc(N2CC(C(=O)NCc3ccccc3)CC2=O)cc1 (configuration not stated)	11
CN(C)C(=O)c1ccc(NC(=O)c2ccc(-c3ccc(Cl)cc3)o2)cc1	-39
CCN1C(=O)/C(=C\c2cn(CCC#N)nc2-c2ccc(F)cc2)SC1=S	-15
CCOC(=O)N1CCN(C(=O)c2ccc(OC)c(OC)c2)CC1	-12
c1ccc(-c2onc3cc4c(cc23)OCCO4)cc1	-18
N#C/C(=C\c1ccccc1)C(=O)NC1CC1	-12
CCCC12CN(C(=O)c3ccc(OC)cc3)CC(C)(CN(C(=O)c3ccc(OC)cc3)C1)C2=O	-25
COc1cccc(C2=CC(c3ccccc3)n3ncnc3N2)c1 (configuration not stated)	-15
O=C(COC(=O)COc1ccc2ccccc2c1)Nc1cc(C(F)(F)F)ccc1N1CCOCC1	1
Cc1cc(C)c2nncn2n1	3
Cc1ccccc1N1CCN(C2CCCN(C(=O)CCN3CCCCO3)C2)CC1 (configuration not stated)	-8
O=C(Cn1cncn1)NCc1ccc(Cl)cc1	7
CCOC(=O)c1ccc(NC(=O)CSc2nc(SC)ns2)cc1	-3
O=C(NCn1cnccc1=O)c1ccccc1	-6
CC(OC(=O)/C(C#N)=C/c1ccc(N(C)C)cc1)C(=O)NCc1ccco1 (configuration not stated)	-4
O=C(CSC1=NCCN1)NC12CC3CC(CC(C3)C1)C2	-10
O=C(c1cc(Cl)nc2ccccc12)N(Cc1nnc(-c2ccc(Cl)cc2)o1)C1CC1	-44
Cc1cc(NC(=O)C2CC(c3ccc(F)cc3)=NO2)n(-c2ccccc2)n1 (configuration not stated)	-14
O=C(Nc1cccc(C(F)(F)F)c1)OCCN1CCN(Cc2ccccc2)CCC1=O	-15
COC(=O)c1ccc(-c2ccc(C(c3c(C)[nH][nH]c3=O)c3c(C)[nH][nH]c3=O)o2)cc1	-20
Cc1ccc(C2=Nc3ccccc3NC(C)(c3ccc(C)o3)C2)o1 (configuration not stated)	-28
COc1cccc(N/C(N)=N/c2nc(C)cc(=O)[nH]2)c1	-28
CCCn1ccc(O)c(Cc2ccc(Cl)cc2)c1=O	7
CCN(CC)C(=O)C(C)N(C#N)c1nc(SC)nc(N(C)C)n1 (configuration not stated)	-30

Entries from the list above containing an NH in an aromatic ring (six):
SMILES	OX1R antag
Cc1cn(COC/C=C/c2ccccc2)c(=O)[nH]c1=O	-13
O=c1c2cn[nH]c2nc(SCc2cc(=O)n3cc(Br)ccc3n2)n1-c1ccc(Br)cc1	-14
COc1ccccc1Nc1n[nH]c(=S)s1	-16
Cc1cc(NC(=O)NC(=O)c2ccc(F)cc2F)n[nH]1	-12
COC(=O)c1ccc(-c2ccc(C(c3c(C)[nH][nH]c3=O)c3c(C)[nH][nH]c3=O)o2)cc1	-20
COc1cccc(N/C(N)=N/c2nc(C)cc(=O)[nH]2)c1	-28

Other structures
SMILES	OX1R antag
CCC(=O)Nc1ccc(S(=O)(=O)c2ccc(NC(=O)CC)cc2)cc1	-1
CCOC(=O)CNC(=O)c1ccc(C)cc1	5
Cc1nc2ccc(NC(=O)c3ccc(Br)o3)cc2s1	-20
Cc1cccc(NC(=O)CC2Nc3cccc4cccc(c34)NC2=O)c1 (configuration not stated)	3
CN(C)c1ccc(/C=N/NC(=O)CCc2nc3ccccc3[nH]2)cc1	-28
O=C(/C=C(\c1ccccc1)n1cncn1)c1ccccc1	-6
CC1CCN(CCCNC(=O)C2CCN(S(=O)(=O)N3CCCCC3)CC2)CC1	-13
O=C(/C=C/c1cccc([N+](=O)[O-])c1)NCCc1ccc(F)cc1	-19
O=[N+]([O-])c1cccc(-c2nn(-c3ccccc3)cc2CO)c1	-13
CCC(C)c1ccc(NC(=S)Nc2ccc(OC)c(OC)c2)cc1 (configuration not stated)	-17
COC(=O)c1cc(C(=O)c2ccccc2)n2c(=O)/c(=C\N(C)C)sc12	-2
C=CCNC(=S)/N=c1/scc(C)n1C	-6
O=C(CN1C(=O)NC2(CCCC2)C1=O)N1CCN(S(=O)(=O)c2ccccc2)CC1	-21
CCOc1ccc(CNC(=O)C2CC(=O)N(C3CCCC3)C2)cc1OC (configuration not stated)	-30
Cc1ccc(-c2nnc(C)c(N3CCCC3)n2)cc1	-1
Cc1[nH]c(=O)[nH]c(=O)c1S(=O)(=O)N1CCCC(C(=O)N2CCC(Cc3ccccc3)CC2)C1 (configuration not stated)	-24
O=C(CC1Sc2ccccc2NC1=O)NNC(=O)Nc1ccc(Cl)cc1 (configuration not stated)	-11
CN(C)C(=O)c1ccc(NC(=O)COc2ccc([N+](=O)[O-])cc2)cc1	7
COc1ccccc1-n1cnnc1SCC(=O)Nc1ncc(Cl)cc1Cl	-6
COc1ccccc1Nc1c2ccccc2nc2ccccc12	-34
CCOC(=O)c1cc(CO)cc(C(=O)OCC)c1	-6
CSc1ccccc1C(=O)NCc1ccccc1C	-5
CC1CCN(S(=O)(=O)c2ccccc2[N+](=O)[O-])CC1	-3
N#Cc1c2n(c3c(-c4ccccc4)ncnc13)CCC2	-19
O=C(Nc1ccon1)c1ccc(Br)s1	-16
(more compounds)
SMILES	OX1R antag
CCOc1ccc(-c2cn(CCC#N)cn2)cc1	-18
Cc1ccc(OCC(O)Cn2c(NCCc3ccccc3)nc3c2c(=O)[nH]c(=O)n3C)cc1 (configuration not stated)	-30
CC(=O)c1sc2nc(CSc3nnnn3-c3ccccc3)[nH]c(=O)c2c1C	-9
CC(C)Cn1cc(Cl)c(=O)n(CC(C)C)c1=O	-17
CNC(=S)Nc1ccc(OCc2ccccc2)cc1	-4
CN(NS(=O)(=O)c1ccc(F)cc1)c1ncc(C(F)(F)F)cc1Cl	-18
COc1cc(OC)c(C(=O)Nc2ccc(S(=O)(=O)N3CCCCC3)cc2)cc1OC	15
COc1ccc(CC(=O)OCN2C(=O)c3ccccc3C2=O)cc1	-15
CCCCNC(=O)CCNC(=O)c1ccc(C(C)(C)C)cc1	-11
COCC(=O)Nc1cc(OC)ccc1OC	-15
CC1(C)C(=O)Nc2ccccc2N1C(=O)COC(=O)Cn1cnc2ccccc2c1=O	-18
CCC(c1nnc(SCC(=O)Nc2ccc(NC(C)=O)cc2)n1Cc1ccccc1)N(C)C (configuration not stated)	-4
CCc1cc(C(=O)OC)c(NC(=O)CC2SC(=NC)N(C)C2=O)s1 (configuration not stated)	-7
COc1ccccc1C(=O)NNC(=O)CN1C(=O)c2ccccc2C1=O	-17
Cc1ccc(C(=O)N2CC(=O)Nc3ccc(F)cc3C2c2ccccc2)cc1 (configuration not stated)	-20
Cc1cc(C(=O)CSC(C)c2nc3ccccc3c(=O)[nH]2)c(C)n1C (configuration not stated)	-28
Nc1nc(SCc2ccc(Br)cc2)[nH]c(=O)c1-c1ccccc1	-21
CCCCn1c(SCC(=O)Nc2cc(C)on2)nc2ccccc2c1=O	-33
Cc1nnn(C23CC4CC(CC(CC(=O)Nc5ccc(C)c(C)c5)(C4)C2)C3)n1	-19
O=C(CSc1ccccn1)c1ccc(F)cc1	-3
Cc1cc(C)cc(N(CCC(=O)Nc2nnc(C)s2)S(=O)(=O)c2ccc(Cl)cc2)c1	-18
COc1cccc(Nc2nnc(Cc3cccnc3)c3ccccc23)c1	-16
CNC(=O)c1c(Cl)cnn1-c1ccc(C)cc1	-4
Cc1ccc(NC(=O)COC(=O)CCc2nc3ccccc3n2-c2ccccc2)c(C)c1	-24
c1ccc(-n2ncc3c2ncn2nc(CSc4nc5ccccc5s4)nc32)cc1	10

An excerpt from above in order of their number in OX1R antag, largest number first:
SMILES	OX1R antag
COc1ccccc1-n1cnnc1SCC(=O)Nc1ncc(Cl)cc1Cl	-6
Cc1c(C(=O)Oc2ccc(-c3cnc4ccccc4n3)cc2)cccc1[N+](=O)[O-]	-7
Cc1cc(NC(=O)NC(=O)c2ccc(F)cc2F)n[nH]1	-12
Cc1cc(C(=O)CSC(C)c2nc3ccccc3c(=O)[nH]2)c(C)n1C (configuration not stated)	-28

Other records follow:
SMILES	OX1R antag
Clc1cccc(CN2CCCCCC2)c1	-5
Cc1ccc2ccc(S(=O)(=O)n3nc(C)cc3C)cc2c1	-19
Oc1ccc(-c2cccc(-c3ccc(O)cc3)c2)cc1	2
Cc1cc(C)nc(SCc2ccccc2C#N)n1	-8
Cc1ccc(C(C)C)c(OCCN2CCc3ccccc3C2)c1	-75
CC(NS(C)(=O)=O)C(c1cccs1)N1CCN(c2ccccc2F)CC1 (configuration not stated)	-8
CCc1nnc(NC(=O)c2ccncc2)s1	-10
CN(Cc1ccon1)C(=O)c1ccc2nc(Cc3cccc(Cl)c3)oc2c1	-23
Fc1ccc(NC(=S)N2CCCC2)cc1Cl	2
CCC(=O)N1CCc2cc(S(=O)(=O)NCCCN3CCN(Cc4ccccc4)CC3)ccc21	-41
CN(C)CC(O)CN1C(=O)N(CN2C(=O)N(CC(O)CN(C)C)C(=O)C2(C)C)C(C)(C)C1=O (configuration not stated)	-2
CC(C)(C)C(=O)NC(=S)Nc1ccc(C(F)(F)F)cc1	-18
COc1cccc(NCc2nnc(SCC(=O)NC3CCS(=O)(=O)C3)n2C2CCCCC2)c1 (configuration not stated)	-21
COCc1ccc(CN2CCCC(CCC(=O)NCc3ccc(C)o3)C2)o1 (configuration not stated)	-31
CCOC(=O)Cn1c(=O)oc2cc(S(=O)(=O)N3CCCC(C)C3)ccc21 (configuration not stated)	0
CC(C)c1nc(NCCO)c(C#N)c2c1CCCC2	-26
CC(=O)Nc1sc(NC(=O)c2ccc(Cl)cc2)nc1-c1cccs1	-21
O=C(Nc1cccc(C(=O)O)c1)/C(=C\c1ccc2c(c1)OCO2)NC(=O)c1ccco1	-16
CCOC(=O)Cn1c(=O)oc2cc(S(=O)(=O)NCC3CCCO3)ccc21 (configuration not stated)	-15
O=C(CSc1nnc(Cc2cc(=O)[nH]c(=O)[nH]2)n1-c1ccccc1)N1CCCC1	-10
COc1ccc(-c2cc(C(F)(F)F)nc(SCC(=O)Nc3ccc4c(c3)OCO4)n2)cc1OC	6
CC(C)(C)NC(=O)CN(C(=O)Cn1nnc(-c2ccccc2F)n1)c1cccc2c1CCCC2	-33
COC(=O)CCC(=O)Nc1cc(Cl)cc(Cl)c1	-8
O=C(Nc1ccc(C(=O)N2CCOCC2)cc1)c1cc(-c2cccnc2)nc2ccc(Cl)cc12	-14
Cc1c(C(C)(C)C)sc(=NC(=O)c2ccccc2O)n1C	-36

4 compounds picked at random from the list so far, as already listed:
SMILES	OX1R antag
C#Cc1cccc(C(=O)NC2CCCN(C3Cc4ccccc4C3)C2)c1 (configuration not stated)	-22
CNC(=S)Nc1ccc(OCc2ccccc2)cc1	-4
COc1cccc(C2=CC(c3ccccc3)n3ncnc3N2)c1 (configuration not stated)	-15
COc1ccccc1-n1cnnc1SCC(=O)Nc1ncc(Cl)cc1Cl	-6

Remaining list, next part
SMILES	OX1R antag
CCc1nnc(NC(=O)c2ccc3c(c2)C(=O)N(CC)C3=O)s1	-9
Cc1cccc(C)c1N1CCN(C(=O)N2CCCCC2)CC1	-24
Cc1nc(NC(=O)C2CC3CCCC(C2)C3=O)sc1C (configuration not stated)	-17
CCOC(=O)c1cc(=O)n2c(nc3ccccc32)[nH]1	2
CCOc1cc(-c2noc(CCCC(=O)NC3CCCCC3)n2)ccc1OC	-21
COc1ccccc1C(=O)NC1CC2CCC(C1)N2Cc1ccccc1 (configuration not stated)	-13
O=C(Nc1ccc2c(c1)OCO2)c1nn(-c2ccccc2)c(=O)c2ccccc12	-33
CN(c1ccccc1N(C)S(=O)(=O)c1ccccc1)S(=O)(=O)c1ccccc1	-16
O=C(CSc1nc(=O)n(CCN2CCOCC2)c2c1CCCC2)Nc1ccc([N+](=O)[O-])cc1	-6
Cc1ccc(S(=O)(=O)NCCN=C(CN2CCCC2)NS(=O)(=O)c2ccc(C)cc2)cc1	-31
Cc1ccc(CS(=O)(=O)Cc2ccc(C(=O)NCc3ccco3)o2)cc1	-21
